Bioassay records (PubChem BioAssay)
VDR inh – Inhibitors of the vitamin D receptor (VDR): qHTS | Vitamin D3 receptor (Homo sapiens), P11473 | 400,000 compounds, 0.93% hits | Potency, µM, for inactives: max response, negative = inhibition, actives largely listed as inhibitors | VDR-SRC2-3 peptide fluorescence polarization, 2 h; active = well fitted inhibition curve with a large enough effect; inconclusive = small, poorly fitted or top-dose-only effect, or another doubt; inactive = no such curve, though single readings can be large or run the other way; note: series mostly up to about 120 µM
Target sequence (P11473 whole entry, looked up): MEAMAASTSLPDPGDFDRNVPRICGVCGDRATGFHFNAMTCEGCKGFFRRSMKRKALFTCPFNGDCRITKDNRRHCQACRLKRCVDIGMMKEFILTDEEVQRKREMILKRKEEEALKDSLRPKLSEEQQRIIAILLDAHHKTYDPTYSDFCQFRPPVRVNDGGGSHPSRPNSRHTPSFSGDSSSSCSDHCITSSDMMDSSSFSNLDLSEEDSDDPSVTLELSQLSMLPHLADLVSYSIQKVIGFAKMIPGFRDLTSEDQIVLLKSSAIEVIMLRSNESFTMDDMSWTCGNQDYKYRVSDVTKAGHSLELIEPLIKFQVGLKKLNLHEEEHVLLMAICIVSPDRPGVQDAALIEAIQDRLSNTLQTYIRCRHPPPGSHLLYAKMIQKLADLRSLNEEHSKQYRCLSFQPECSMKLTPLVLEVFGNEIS
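Measured by FP: displacement of SRC2-3 coactivator peptide from VDR by library compounds, following a two-hour ambient incubation.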
* marks the source's active call; other numbers are inactive results; ? = inconclusive; & = joins results of further samples; [ ] = remark or other dose. % is set by controls: 0 for no effect and ±100 for the full control effect; potency is the fitted concentration of half-maximal effect. A portion of the library; the hit share may differ from the screen's.

SMILES	VDR inh
C[C@@H]1CC[C@H]2[C@H](C)[C@H]3CC[C@H]4C5[C@@H](O)CC6=CC(=O)CC[C@]6(C)[C@H]5C[C@H]4C3C(=O)N2C1 (stereo partly drawn)	-6.6%
CN(CC[C@@H](Oc1ccc(C(F)(F)F)cc1)c1ccccc1)CC(=O)O	-1.1%&-17.9%
COc1ccc2c(c1)c(=O)c(S(=O)(=O)c1ccccc1)cn2CC(=O)Nc1ccc2c(c1)OCO2	-11.6%
O=C1NC2=C(CCc3ccccc32)C(c2ccccc2)N1 (stereo not drawn)	-13.8%
Cc1ccc(S(=O)(=O)N2CCCC2C(=O)N2CCCCCC2)cc1 (stereo not drawn)	?
CC(C)N(C(=O)Cn1cc(S(=O)(=O)CC(=O)N2CCOCC2)c2ccccc21)C(C)C	19.8%
COc1ccc(COC(=O)c2c(C)nn(-c3ccccc3)c2Cl)cc1	8.3%
Cc1ccc(CCNC(=O)C2CCN(S(=O)(=O)c3ccc4c(ccn4C)c3)CC2)cc1	-2.9%
OC(CNCCc1ccc(Cl)cc1)COc1cc(Cl)ccc1Cl (stereo not drawn)	34.1%[activator]
O=C1C=CC(=O)N1c1ccccc1N1C(=O)C=CC1=O	3.16µM*
CCCCn1c(N)c(NCC)c(=O)[nH]c1=O	12.3%
CC[C@@H](C)C(NC(=O)OC(C)(C)C)c1cn([C@@H](CCC(=O)OC(C)(C)C)C(=O)N2CCN(C(=O)OC(C)(C)C)CC2)nn1 (stereo partly drawn)	-9.6%
CCOC(=O)n1c(=O)oc2ccc(Cl)cc21	-10.2%
CC(C)CC1NC(=O)N(CC(=O)N2CCN(S(=O)(=O)c3ccc(Cl)cc3)CC2)C1=O (stereo not drawn)	11.5%
Cc1ccc(C(=O)N2CCCC(N(C)Cc3ccccc3)C2)s1 (stereo not drawn)	-13.3%
COc1ccc(C(=O)OCC(=O)NC(C)CCc2ccccc2)cc1 (stereo not drawn)	4.2%
CC(=O)Nc1ccc(NC(=O)CSCc2cnn(-c3ccccc3)c2-n2cccc2)cc1	?
Nc1nnnn1/N=C/c1ccccc1OCc1ccc(Cl)cc1	16.3%
Cc1cccc(NS(=O)(=O)c2cccc(C(=O)Nc3cccc(C(=O)O)c3)c2)c1	-11.2%
CC(=O)NCC1CCCN(C(=O)c2oc3c(F)cccc3c2C)C1 (stereo not drawn)	-4.9%
Cc1nc2c(cnn2-c2ccccc2Cl)c(=O)n1-c1ccc(N2CCC(C)CC2)cc1	0.2%
Cc1cc(Nc2ccc(F)cc2)nc(N)n1	-5.2%
CCn1cc(C(=O)NCCc2ccccc2)c(=O)c2cc(S(=O)(=O)N3CCCCCC3)ccc21	-14.3%
Nc1nonc1-n1nnc(C(=O)N/N=C/c2cccc(Cl)c2)c1CSc1ccccc1	3.5%
CCOc1cccc(CN2CCC(CCC(=O)NC3CC3)CC2)c1O	-6.8%

Other structures.
SMILES	VDR inh
COc1cccc(CSc2ccc(S(=O)(=O)N3CCOCC3)cc2C(=O)NCC2CCCO2)c1OC (stereo not drawn)	-5.3%
O=C(N/N=C1\C(=O)c2cccc3cccc1c23)c1ccc(O)cc1	-12.9%
CCCCCC(=O)N/N=C/c1ccc([N+](=O)[O-])o1	0.3%
Cc1ccc(C2CC(c3cccs3)=NN2S(=O)(=O)c2ccc(C)cc2)cc1 (stereo not drawn)	-8.0%
O=C(CSc1ccc(-c2ccccn2)nn1)c1ccccc1	2.9%
C[C@H](CO)N1C[C@H](C)[C@@H](CN(C)S(=O)(=O)c2cccs2)Oc2c(NS(=O)(=O)c3ccccc3)cccc2C1=O	-8.1%
COc1cc2c(cc1OC)C(SC)=NC(C)(C)C2	-23.3%
Cc1cnc2c(c1SCC(=O)NCc1ccc(F)cc1)c(=O)n(C)c(=O)n2C	4.9%
COc1ccc(NC(=O)c2ccc(COCC(F)(F)C(F)F)cc2)cc1OC	-2.0%
CCS(=O)(=O)Nc1ccc(Cc2ccc(NS(=O)(=O)CC)cc2)cc1	10.1%
C1CC2CN(c3nc4nonc4nc3N3CCSCC3)CCN2C1 (stereo not drawn)	-6.5%
CC1CCCN(S(=O)(=O)c2ccc(NC(=O)C3CCN(C(=O)c4ccco4)CC3)cc2)C1 (stereo not drawn)	?
O=C(OCC(=O)N1CCN(c2ccccc2)CC1)c1ccc(O)cc1O	-7.6%
COc1cc(OC)c(C(=O)NC2CCCCCC2)cc1OC	2.8%
CC(C)Nc1ncnc2c1nnn2Cc1ccccc1	6.0%
Cc1cc(C(F)F)n2nc(C(=O)Nc3ccc(F)cc3F)nc2n1	17.2%
OCCNc1nc(C2CC2)nc2c1nnn2Cc1ccccc1Cl	-14.5%
Cn1c(-c2c(N)n(-c3ccccc3)c3nc4ccccc4nc23)nc2ccccc21	2.7%
O=C(NC(=S)NNC(=O)c1ccccc1O)c1ccccc1	4.1%
CCOC(=O)CNC(=O)Cn1cnc2c(nnn2-c2ccc(C)cc2)c1=O	6.0%
N#Cc1cccc(-n2nnnc2-c2ccccn2)c1	3.5%
N=C1C(c2ccccc2)=C(O)CN1c1cccc(S(=O)(=O)N2CCOCC2)c1	?
COc1ccc(S(=O)(=O)N2CCC(C(=O)NCCc3ccc4c(c3)OCO4)CC2)cc1	0.0%
COc1ccc(C(=O)C2CCCN(Cc3cccc4c3OCO4)C2)cc1OC (stereo not drawn)	8.8%
Cc1c(NC(=O)CSc2ncnc3ccccc23)c(=O)n(-c2ccccc2)n1C	-9.9%

Continued, starting with the last three of the part before.
SMILES	VDR inh
COc1ccc(S(=O)(=O)N2CCC(C(=O)NCCc3ccc4c(c3)OCO4)CC2)cc1	0.0%
COc1ccc(C(=O)C2CCCN(Cc3cccc4c3OCO4)C2)cc1OC (stereo not drawn)	8.8%
Cc1c(NC(=O)CSc2ncnc3ccccc23)c(=O)n(-c2ccccc2)n1C	-9.9%
Cc1ccc(S(=O)(=O)N2CCCCC2)cc1C(=O)N1C(C)CCCC1C (stereo not drawn)	0.9%
Cc1csc2nc(O)c(C(=O)NCCCN3CCCC3=O)c(=O)n12	-1.3%
Cn1c(=O)n(C)c2cc(N3CCOCC3)c(NC(=O)c3ccc(F)cc3)cc21	-7.1%
COc1ccc(NCC(=O)NN=C2CCS(=O)(=O)c3ccc(F)cc32)cc1	7.3%
COc1ccc([N+](=O)[O-])cc1N(CC(O)CN1CCCCC1)S(=O)(=O)c1ccccc1 (stereo not drawn)	4.9%
Cc1nnc2ccc(-c3ccc(NS(=O)(=O)c4ccccc4[N+](=O)[O-])cc3)nn12	-7.4%
Cn1nnc(C(O)CN2CCOCC2)n1 (stereo not drawn)	0.0%
O=C(C1=C(O)C(=O)N(CCN2CCOCC2)C1c1cccc(F)c1)c1cc2ccccc2o1 (stereo not drawn)	-27.0%
O=C(Nc1ccc2nc(SCC(=O)N3CCCc4ccccc43)sc2c1)c1ccc(Cl)cc1	17.7%
Cc1ccc(C)c(C(=O)CCC(=O)Nc2cccnc2)c1	-8.0%
Brc1ccccc1-c1csnn1	-5.8%
Cn1c(SCC(=O)N2CCc3ccccc3C2)nnc1-c1ccncc1	-1.8%
O=C1C=C(NCc2ccc(Cl)cc2Cl)C2(CCCCC2)O1	-5.8%
Cc1cc(C)c(NC(=O)CS(=O)CC(=O)NCCCc2ccccc2)c(C)c1 (stereo not drawn)	32.8%
O=C(NNC1=NCCC1)c1cccc(S(=O)(=O)N2CCCC2)c1	-6.9%
CCCCCc1nnc(NC(=O)CN2C(=O)C3CCCCC3C2=O)s1 (stereo not drawn)	?
C[C@H](NC(=O)[C@@H](N)Cc1ccc(O)cc1)C(=O)NCC(=O)N[C@H]1CSSC[C@@H](C(=O)O)NC(=O)[C@H](CO)NC(=O)[C@H]([C@@H](C)O)NC(=O)[C@H](Cc2ccccc2)NC(=O)[C@H]([C@@H](C)O)NC(=O)[C@H](CCCCN)NC(=O)[C@@H](Cc2c[nH]c3ccccc23)NC(=O)[C@H](Cc2ccccc2)NC(=O)[C@H](Cc2ccccc2)NC(=O)[C@H](CC(N)=O)NC(=O)[C@H](CCCCN)NC1=O	8.6%
Cc1cccc2cc(CN(CCCN3CCOCC3)Cc3nnnn3C(C)(C)C)c(=O)[nH]c12	-15.6%
CN(C)CCNC(=O)Cn1nc(-c2ccc(Cl)cc2)ccc1=O	-24.1%
Brc1cc2c(cc1C1Nc3ccccc3C3C=CCC31)OCO2 (stereo not drawn)	-1.6%
Cc1ccc(C)c(NC(=O)Nc2csc3c2CCCC3)c1	-4.0%
COc1cc(/C=C2\SC(=Nc3ccc(Cl)c(C(=O)O)c3)NC2=O)c(Br)c(Br)c1O	?
O=S(=O)(N/N=C\c1ccc2c(c1)OCO2)c1ccc(F)cc1	1.3%
O=C(N1CCC(O)(c2cccnc2)CC1)C12CC3CC(CC(C3)C1)C2	2.2%
C#CCn1c(=NC(=O)c2ccccc2[N+](=O)[O-])sc2cc(S(C)(=O)=O)ccc21	-11.7%

Among those listed so far, these contain a tert-butyl group.
SMILES	VDR inh
CC[C@@H](C)C(NC(=O)OC(C)(C)C)c1cn([C@@H](CCC(=O)OC(C)(C)C)C(=O)N2CCN(C(=O)OC(C)(C)C)CC2)nn1 (stereo partly drawn)	-9.6%
Cc1cccc2cc(CN(CCCN3CCOCC3)Cc3nnnn3C(C)(C)C)c(=O)[nH]c12	-15.6%

(continued)
SMILES	VDR inh
Cc1cccc(NC(=O)C2CCCN(C(=O)NCc3ccccc3)C2)c1C (stereo not drawn)	8.1%
CCCn1c(=O)c2[nH]cnc2n(-c2ccccc2C)c1=O	-10.8%
Fc1ccc2nc3n(c2c1F)CCCCCC3	-4.0%
CCOC(=O)C(C(=O)N(C)Cc1ccccc1)C1CCCCC1 (stereo not drawn)	-22.0%
CC(C)NC(=O)C(=O)NC1CCCCCC1	-1.1%
CCc1cccc(NC(=O)CN2C=NS(=O)(=O)c3ccccc32)c1	12.8%
COc1ccccc1OCC(=O)Nc1nnc2n1CCS2	-3.7%
CCOP1(=O)C=C(C(C)(C)C)OC1c1ccc(F)cc1 (stereo not drawn)	5.0%
NC(=O)C1(N2CCCCC2)CCN(Cc2ccccc2Cl)CC1	-1.5%
Cc1ccc(NC(NC(=O)c2ccccn2)C(Cl)(Cl)Cl)cc1 (stereo not drawn)	-4.3%
CCc1cccc(NC(=O)C2CCCN(c3ncnc4onc(-c5ccc(F)cc5)c34)C2)c1 (stereo not drawn)	5.5%
NS(=O)(=O)c1ccc(NC(=O)c2c(Cl)cccc2Cl)cc1	-9.5%
Cc1ccc(C)c(NC(=O)CSc2nc3[nH]ncc3c(=O)[nH]2)c1	-10.3%
COc1ccc(CCNC(=O)c2cc(=O)[nH]c3ccc(S(=O)(=O)N4CCCCC4C)cc23)cc1OC (stereo not drawn)	-10.1%
O=C(NCCSc1ccccc1)c1ccc(CN2CCOCC2)cc1	-11.8%
CN1CCO/C1=C(\C(Cl)=C(Cl)Cl)[N+](=O)[O-]	-20.4%
C/C(=C\C=C(C#N)C#N)c1cc(C#N)c(N)o1	7.5%
CC(C(=O)NCc1cccnc1)c1ccc([N+](=O)[O-])cc1 (stereo not drawn)	-3.7%
Cc1cc(NC(=O)CSc2nc3ccccc3n2CC(=O)N2CC(C)CC(C)C2)no1 (stereo not drawn)	-14.6%
CCCCn1cc(S(=O)(=O)c2ccc(Cl)cc2)c(=O)c2cc(F)c(N3CCCCC3)cc21	18.9%
N#Cc1c(SCC(=O)Nc2nncs2)sc2c(O)cc(=O)[nH]c12	3.1%
COc1ccc(OCC(=O)Nc2nc3ccccc3[nH]2)cc1	8.7%
O=C(COc1ccccc1)N(Cc1cccs1)C1CCS(=O)(=O)C1 (stereo not drawn)	-5.2%
Cc1ccc(C2Nc3ccc4ccccc4c3C3=C2C(=O)CC(C)(C)C3)o1 (stereo not drawn)	3.2%

5 entries picked at random from those above:
SMILES	VDR inh
COc1ccc(CCNC(=O)c2cc(=O)[nH]c3ccc(S(=O)(=O)N4CCCCC4C)cc23)cc1OC (stereo not drawn)	-10.1%
CCCCn1cc(S(=O)(=O)c2ccc(Cl)cc2)c(=O)c2cc(F)c(N3CCCCC3)cc21	18.9%
C/C(=C\C=C(C#N)C#N)c1cc(C#N)c(N)o1	7.5%
CCc1cccc(NC(=O)C2CCCN(c3ncnc4onc(-c5ccc(F)cc5)c34)C2)c1 (stereo not drawn)	5.5%
Cc1cccc(NC(=O)C2CCCN(C(=O)NCc3ccccc3)C2)c1C (stereo not drawn)	8.1%
